Screens (PubChem)
MT1-MMP act inh = blockers of MT1-MMP proenzyme processing, primary screen, HT1080 RFP-PRO-GFP cells, GFP/RFP fluorescence; Matrix metalloproteinase-14 (Homo sapiens), P50281; GFP/RFP ratio fluorescence, overnight; percent of plate control window, DMSO zero; GFP/RFP ratio change, % at 20 µM; 360,000 tested, 0.061% active;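 active = GFP/RFP ratio change of at least 30% with cell ATP level not reduced by more than half and red fluorescence within 50% of control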; also: strong numbers were not always called active
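Test system: HT1080 cells expressing an RFP-PRO-GFP fluorescent reporter construct / Compound dosing: single-point 20 µM compound, 1% DMSO / Schedule: cells overnight before dosing, compound overnight, 37 °C, 5% CO2 / Evaluation: GFP/RFP fluorescence ratio / Control set: DMSO and RFP-L50D-GFP cell wells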
Env fusion inh = inhibitors of HIV-1 Env-driven cell-cell fusion, primary screen, HeLa-JRFL effector, CEM21 target cells, luciferase; inhibition, % at 12.3 µM; 360,000 tested, 1.1% active;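 active = mean replicate inhibition score of at least 50 and every replicate individually at or above 50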;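 also: 0% = plate neutral controls and 100% = maraviroc near 300 nM; one replicate is shown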
Yeast UUG start = modulators of yeast start codon fidelity, primary screen, whole organism, S. cerevisiae, single point, plate reader. S. cerevisiae UUG-firefly luciferase reporter, luminescence/redox ratio. activity score, % at 18.7 µM. 350,000 tested, 0.13% active. AID 602363, 2012;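 active = replicate mean at a twofold rise or more, about +100% in these data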;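 also: firefly luciferase made from a UUG start codon reports start codon fidelity; reporter light over untreated wells divided by growth signal over untreated wells; some hits fall short of that in this replicate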
CSC inhib = cancer stem cell viability inhibitors, primary screen, luminescence; cancer stem cell-like cells viability; inhibition, % at 7.5 µM; 300,000 tested, 1.1% active;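 active = mean at 75% or more and at least half the replicates too; tested in HMLE shEcad cells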;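 also: 0% = median of negative and 100% = median of positive control wells; the first replicate is given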
Rce1 inhib = yeast Rce1p protease inhibitors, primary screen, biochemical, fluorescence, cell-free homogeneous | yeast membranes, quenched prenylated peptide cleavage fluorescence | AID 2563, 2010 | CAAX prenyl protease 2 (Saccharomyces cerevisiae (strain ATCC 204508 / S288c)), Q03530 | 290,000 tested, 0.27% active | calls only;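 active = fall in fluorescence gain of 50% or more versus controls, with final raw signal at or below 3038400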;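 also: plate controls were neutral control wells for no effect and wells lacking membranes for full effect; tested at 10 µM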
Target sequence (Q03530 whole entry, looked up): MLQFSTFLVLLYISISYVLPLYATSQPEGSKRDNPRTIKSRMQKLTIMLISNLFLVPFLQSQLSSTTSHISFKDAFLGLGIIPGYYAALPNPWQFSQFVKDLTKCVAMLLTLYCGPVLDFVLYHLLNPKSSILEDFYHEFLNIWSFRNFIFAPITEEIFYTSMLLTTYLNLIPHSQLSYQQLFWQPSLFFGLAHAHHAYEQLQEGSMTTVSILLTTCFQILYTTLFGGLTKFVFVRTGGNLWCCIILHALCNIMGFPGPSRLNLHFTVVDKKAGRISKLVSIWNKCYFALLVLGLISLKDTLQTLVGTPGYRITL
eIF4H inh = human eIF4H binding inhibitors, primary screen, translation initiation inhibitor project, biochemical, uHTS, fluorescence polarization | Eukaryotic translation initiation factor 4H (Homo sapiens), Q15056 | 290,000 tested, 0.94% active | eIF4H fluorescence polarization binding assay | inhibition, % at 35 µM | AID 2012, 2009;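 active = 50% or more with normal probe brightness, or confirmed in later tests; about a fifth of its hits are not listed in these tables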;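 also: calls also rest on retests at 20 µM and on dose response follow-up; 0% = protein and probe with vehicle and 100% = probe without protein; strong numbers were not always called active; many hits fall short of the cut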
PABP polyA inh = PABP poly(A) RNA binding inhibitors, primary screen, biochemical, fluorescence polarization, uHTS; Polyadenylate-binding protein 1 (Homo sapiens), P11940; inhibition, % at 35 µM; 290,000 tested, 1% active; AID 2014, 2009;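 active = 50% or more with normal probe brightness, or confirmed in later tests; about a fifth of its hits are not listed in these tables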;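 also: calls also rest on retests at 20 µM and on dose response follow-up; controls were probe without protein and protein plus probe with vehicle; some compounds called inactive have numbers as strong as hits; many hits fall short of the cut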
Target sequence (P11940 whole entry, looked up): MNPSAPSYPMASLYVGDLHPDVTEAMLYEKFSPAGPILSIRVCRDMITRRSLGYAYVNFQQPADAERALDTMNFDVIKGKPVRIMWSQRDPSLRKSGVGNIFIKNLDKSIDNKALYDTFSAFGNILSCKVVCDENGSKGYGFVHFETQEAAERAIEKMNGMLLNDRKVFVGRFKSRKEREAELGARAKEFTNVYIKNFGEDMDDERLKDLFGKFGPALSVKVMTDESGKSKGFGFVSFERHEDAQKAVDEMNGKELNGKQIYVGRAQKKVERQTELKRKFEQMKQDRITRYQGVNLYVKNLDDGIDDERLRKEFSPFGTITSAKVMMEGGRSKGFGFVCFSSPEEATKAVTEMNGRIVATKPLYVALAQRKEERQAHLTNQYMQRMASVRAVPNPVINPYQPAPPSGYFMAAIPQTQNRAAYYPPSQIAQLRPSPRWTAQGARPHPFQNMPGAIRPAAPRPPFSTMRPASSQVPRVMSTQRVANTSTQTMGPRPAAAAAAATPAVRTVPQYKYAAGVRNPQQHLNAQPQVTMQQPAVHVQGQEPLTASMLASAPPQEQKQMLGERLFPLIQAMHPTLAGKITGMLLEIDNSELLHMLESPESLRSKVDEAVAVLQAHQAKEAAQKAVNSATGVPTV
eIF4H inh retest = also measured in eIF4H inh; calls as there; inhibition, %; compound at 20 µM; confirmation average;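 mean of two retest wells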
PABP polyA inh retest = further read-out of PABP polyA inh, marked with its call; inhibition, %; compound at 20 µM; confirmation repeats;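 mean of two retest wells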
MT1-MMP act inh RFP = recorded beside MT1-MMP act inh, whose call it bears; RFP signal change, %; measured here: RFP expression control read;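 0 = vehicle wells; hits needed this value within 50% of zero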
* hit, by the source's call; i = inactive; / = not tested or not shown.

SMILES	MT1-MMP act inh	MT1-MMP act inh RFP	Env fusion inh	Yeast UUG start	CSC inhib	Rce1 inhib	eIF4H inh	PABP polyA inh	others
Cc1cc(C)n2c(SCC(=O)NC3CCCC(C)C3C)nnc2n1 (configuration not stated)	5	5	22	/	-3	i	15	0
CCOC(=O)c1c(NC(=O)c2ccccc2C(=O)O)sc2c1CCCC2	-2	3	-40	-11	0	i	-10	1
CCOC(=O)C1(CC2CCCCO2)CCN(Cc2c(C)cc(C)cc2-n2cccn2)CC1 (configuration not stated)	1	-1	-2	/	-6	i	-8	-1
Cc1ccc2[nH]c3c(=O)n(CC(=O)N4CC(C)CC(C)C4)ncc3c2c1 (configuration not stated)	1	-3	4	-17	-17	i	-7	7
COc1cc(C(=O)NCC(=O)OCC(=O)Nc2ncc(Cl)cc2Cl)cc(OC)c1OC	2	5	7	/	-6	i	8	5
Cc1ccc(OCC(=O)O/N=C(\N)c2ccccn2)cc1	2	0	-78	-26	-4	i	-12	-4
O=C(COC(=O)C1CCCCC1C(=O)N1CCc2ccccc21)NCc1ccco1 (configuration not stated)	1	3	/	-8	-4	i	71	10	eIF4H inh retest=28;PABP polyA inh retest=22
O=C(OCC(=O)N1CCN(c2ccccc2)CC1)c1ccco1	12	1	-85	3	/	/	6	6
COc1cccc(NC(=O)C2=COCCO2)c1	0	-1	-2	-2	/	i	/	/
CS(=O)(=O)N1CCN(c2ccccc2NC(=O)c2ccc3c(c2)OCCO3)CC1	-1	-3	9	7	-8	/	11	4
Fc1ccc(-c2csc3ncnc(Cl)c23)cc1	-3	-7	-74	/	1	i	1	11
Nc1nonc1C(=O)NCCc1ccccc1	-5	1	-19	-14	-13	i	1	-3
COc1cc(NC(=S)NCc2cccnc2)c(OC)cc1Cl	-2	2	9	/	-14	/	-9	-2
CN1CCN(C(=O)NC2CCCCC2)CC1	0	4	41	-16	-8	i	3	-6
COCCN(C(=O)Cc1cccs1)C(C(=O)NC1CCCC1)c1cc(OC)c(OC)c(OC)c1 (configuration not stated)	5	1	6	-18	2	i	-4	-5
CN(Cc1cccc(F)c1)C(=O)Cc1ccc(S(=O)(=O)N2CCOCC2)s1	-2	1	-31	1	0	i	/	/
O=C(Cc1coc2cc(O)ccc12)NNC(=O)c1ccc(Br)s1	1	-1	6	-8	2	/	/	/
Cc1c(NC(=O)Nc2cccc(Cl)c2Cl)c(=O)n(-c2ccccc2)n1C	0	4	20	-20	-22	i	11	2
CCc1noc(C)c1C(=O)N1CCCC(N2CCN(c3cccc(Cl)c3)CC2)C1 (configuration not stated)	0	-5	-20	-2	-11	i	-7	-1
CCOC(=O)CC(=O)CSc1ccc2nnc(-c3ccc(C)cc3)n2n1	-7	-3	35	-24	/	i	-5	-3
Cc1cccc(Cn2c(N3CCN(c4ccccc4)CC3)nc3c2c(=O)n(C)c(=O)n3C)c1	-12	-9	/	-6	-5	i	8	-2
COC(=O)[C@@]1(Cc2ccc(F)cc2)[C@H]2c3cc(C(=O)N(C)C)n(Cc4ccc(OC(F)(F)F)cc4)c3C[C@H]2CN1C(=O)c1ccccc1	/	/	38	/	37	i	21	-3
CCC(=O)Oc1ccc(C(=O)Nc2cccc(C(=O)c3ccccc3)c2)cc1	-1	-7	/	-9	24	i	-3	-12
CCOC(=O)C1CCN(C(=O)c2ccc(N(C)S(=O)(=O)c3ccc(OC)cc3)cc2)CC1	3	0	-2	/	-15	i	-5	-4
O=C1CC(NS(=O)(=O)c2ccc([N+](=O)[O-])cc2)CN1c1ccc(Cl)cc1 (configuration not stated)	0	1	3	/	-8	i	/	/
CC(C)(C)c1ccc(Cn2ccc(-c3ccc4c(c3)OCO4)n2)cc1	-11	-2	3	-21	0	i	-3	12
O=C1NC2(CCCCCC2)C(=O)N1Cc1ccccc1Cl	0	2	9	-14	-12	i	0	26
CC(C)C1Oc2ccccc2N(CC(=O)N(Cc2ccccn2)C2CC2)C1=O (configuration not stated)	0	0	-12	/	-8	/	-10	-8
Cc1ccc(SCc2c(C#N)c3ccccc3n2C)cc1	-3	1	/	6	-4	i	-4	28
O=C1CC(c2ccccc2)CC2=C1C1(CCCC1)N=C(Nc1nc3ccccc3o1)N2 (configuration not stated)	-25	-21	-71	-43	/	/	/	/
CCN1CCN(CCNC(=O)CCCCCn2c(=O)[nH]c3cc(C(=O)OC)ccc3c2=O)CC1	3	-3	-54	-6	-9	i	-15	-4
O=C(C[n+]1ccccn1)c1ccccc1	-1	2	13	2	7	i	-11	-9
Cc1cccc(CNC(=O)C2CCCN(c3nn4c(=O)cc(C)nc4s3)C2)c1 (configuration not stated)	-1	4	2	-4	-4	i	-5	-6
Cc1cc(=O)oc2cc(OCC(=O)OCC(=O)Nc3ccccc3F)ccc12	1	2	1	/	3	i	-13	0
CCCCC(=O)N1CCCC(c2nc3c(nnn3Cc3cc(C)ccc3C)c(=O)[nH]2)C1 (configuration not stated)	-3	-9	40	-1	-14	i	11	7
CN(Cc1nc(-c2ccncc2)no1)S(=O)(=O)c1ccccc1	1	2	/	-15	-2	i	-15	19
CCOc1ccc(NC(=O)CS(=O)(=O)c2cn(C)c3ccccc23)cc1	3	-1	27	-8	-9	i	-5	2
COc1ccc(C(=O)Nc2ccc([N+](=O)[O-])cn2)c(OC)c1	1	1	-44	-8	33	i	-4	16
Cc1ccc(CC(=O)Nc2nccs2)cc1	1	2	-14	-11	-11	i	-15	-21
Cc1ccc(C)c(N(C(=O)c2csnn2)C(C(=O)NC2CCCCC2)c2ccncc2)c1 (configuration not stated)	-2	0	9	-13	1	i	2	-2
Cc1ccc(CCNC(=O)C2CCC(=O)N(CC3CCCCC3)C2)cc1 (configuration not stated)	-1	-3	10	11	1	i	-10	6
COCCC(=O)N1CCCC(C(=O)c2ccccc2SC)C1 (configuration not stated)	3	1	-22	10	-8	i	/	/
Oc1ccccc1/C=N/NC(=S)NC1CC2C=CC1C2 (configuration not stated)	3	-11	-12	/	54	i	4	9
COc1ccc(C)cc1NC(=O)CNC(=O)Cn1ccc2ccccc2c1=O	0	-3	-1	-5	-1	i	3	9
O=C(CNC(=O)c1ccccc1F)c1ccc(Br)cc1	2	5	-107	-28	-9	i	-4	0

The closing 2 records of the section before are carried over, then new ones follow:
SMILES	MT1-MMP act inh	MT1-MMP act inh RFP	Env fusion inh	Yeast UUG start	CSC inhib	Rce1 inhib	eIF4H inh	PABP polyA inh	others
COc1ccc(C)cc1NC(=O)CNC(=O)Cn1ccc2ccccc2c1=O	0	-3	-1	-5	-1	i	3	9
O=C(CNC(=O)c1ccccc1F)c1ccc(Br)cc1	2	5	-107	-28	-9	i	-4	0
O=C(c1cc(-c2ccc(Cl)cc2)on1)N1CCCCCC1	5	1	-50	-10	6	i	4	14
CC(CN1CCOCC1)C(=O)O (configuration not stated)	2	2	/	-12	-13	i	-5	-1
O=P(COc1ccccc1)(c1ccccc1)c1ccccc1	3	-3	-117	/	/	i	-4	-6
OC(CNCc1ccc2c(c1)OCO2)COc1ccccc1 (configuration not stated)	9	0	20	/	5	i	3	5
CSc1ccc(S(=O)(=O)Nc2cccc(F)c2)cc1	/	/	/	/	10	i	-6	5
O=c1c2ccccc2oc2cc(C#Cc3ccccn3)ccc12	1	5	-350	-13	0	i	/	/
COc1ccc2sc(-c3ccc(SC)cc3)c(-c3ccc(O)cc3)c2c1	-1	-7	-16	-24	107*	/	/	/
Cc1cccc(C(=O)NCC(=O)NCCSc2ccc(Br)cc2)c1	4	0	9	0	-7	i	/	/
CCCN(C(=O)CCNC(=O)Cn1cnc2ccccc2c1=O)c1cccc(Cl)c1	0	2	/	-12	-7	i	-1	-6
Cc1ccc(C(=O)NC2CCCC2)s1	3	2	-11	-2	3	i	-4	-4
O=c1cc(Cl)c(-c2ccccc2)nn1Cc1ccc(Cl)cc1	-1	-6	-13	-1	3	i	-5	9
O=C1/C(=C\c2ccccn2)SC(=S)N1c1ccc(S(=O)(=O)Nc2nccs2)cc1	2	2	20	13	-5	i	66	13	eIF4H inh retest=46;PABP polyA inh retest=32
Cc1ccccc1/C=N\NC(=O)c1csnn1	1	2	/	-17	7	i	5	-4
Cc1c(C(=O)NCC(c2ccco2)N(C)C)oc2c(Cl)cccc12 (configuration not stated)	-2	0	-2	-14	-8	i	/	/
Cc1ccc(C(=O)NCC(=O)OCC(=O)NC2CCS(=O)(=O)C2)cc1C (configuration not stated)	3	3	-5	/	3	i	-7	3

A draw from above in order of formula weight, falling.
SMILES	MT1-MMP act inh	MT1-MMP act inh RFP	Env fusion inh	Yeast UUG start	CSC inhib	Rce1 inhib	eIF4H inh	PABP polyA inh	others
O=C1/C(=C\c2ccccn2)SC(=S)N1c1ccc(S(=O)(=O)Nc2nccs2)cc1	2	2	20	13	-5	i	66	13	eIF4H inh retest=46;PABP polyA inh retest=32
CCCN(C(=O)CCNC(=O)Cn1cnc2ccccc2c1=O)c1cccc(Cl)c1	0	2	/	-12	-7	i	-1	-6
Cc1cccc(C(=O)NCC(=O)NCCSc2ccc(Br)cc2)c1	4	0	9	0	-7	i	/	/
Cc1ccc(C(=O)NCC(=O)OCC(=O)NC2CCS(=O)(=O)C2)cc1C (configuration not stated)	3	3	-5	/	3	i	-7	3
COc1ccc2sc(-c3ccc(SC)cc3)c(-c3ccc(O)cc3)c2c1	-1	-7	-16	-24	107*	/	/	/
Cc1c(C(=O)NCC(c2ccco2)N(C)C)oc2c(Cl)cccc12 (configuration not stated)	-2	0	-2	-14	-8	i	/	/
O=C(CNC(=O)c1ccccc1F)c1ccc(Br)cc1	2	5	-107	-28	-9	i	-4	0
O=P(COc1ccccc1)(c1ccccc1)c1ccccc1	3	-3	-117	/	/	i	-4	-6
O=C(c1cc(-c2ccc(Cl)cc2)on1)N1CCCCCC1	5	1	-50	-10	6	i	4	14
OC(CNCc1ccc2c(c1)OCO2)COc1ccccc1 (configuration not stated)	9	0	20	/	5	i	3	5
O=c1c2ccccc2oc2cc(C#Cc3ccccn3)ccc12	1	5	-350	-13	0	i	/	/
Oc1ccccc1/C=N/NC(=S)NC1CC2C=CC1C2 (configuration not stated)	3	-11	-12	/	54	i	4	9
Cc1ccccc1/C=N\NC(=O)c1csnn1	1	2	/	-17	7	i	5	-4
Cc1ccc(C(=O)NC2CCCC2)s1	3	2	-11	-2	3	i	-4	-4
CC(CN1CCOCC1)C(=O)O (configuration not stated)	2	2	/	-12	-13	i	-5	-1

More entries
SMILES	MT1-MMP act inh	MT1-MMP act inh RFP	Env fusion inh	Yeast UUG start	CSC inhib	Rce1 inhib	eIF4H inh	PABP polyA inh	others
O=C(O)C1CCC(=O)N1C1c2ccccc2Oc2ccccc21 (configuration not stated)	0	5	-217	-14	-7	i	3	6
COc1ccc(C(=O)NOCc2ccccc2)cc1	0	3	-9	-71	-2	i	/	/
COc1cc(/C(C)=N/NC(=O)CSc2nc3ccccc3[nH]2)ccc1O	2	6	6	-5	-9	i	2	7
COc1ccc(-n2nc3c(c2NC(=O)c2ccc(Br)cc2)CS(=O)C3)cc1 (configuration not stated)	1	5	8	-8	-3	i	-4	-5

These rows are one share of the data; the hit share may differ from the screen's.
